RecA intein inh: inhibitors of M. tuberculosis RecA intein splicing; cell-free RecA intein splicing, fluorescence; inhibition, %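 (about 9 µM by stock and volumes)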; AID 2221; P9WHJ3; 0.75% of 290,000 active; in the data active = inhibition above about 30%; inconclusive = no clear call, values can overlap the other calls;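 note: 0% = vehicle wells and 100% = reference inhibitor control wells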
Target sequence (P9WHJ3 whole entry, looked up): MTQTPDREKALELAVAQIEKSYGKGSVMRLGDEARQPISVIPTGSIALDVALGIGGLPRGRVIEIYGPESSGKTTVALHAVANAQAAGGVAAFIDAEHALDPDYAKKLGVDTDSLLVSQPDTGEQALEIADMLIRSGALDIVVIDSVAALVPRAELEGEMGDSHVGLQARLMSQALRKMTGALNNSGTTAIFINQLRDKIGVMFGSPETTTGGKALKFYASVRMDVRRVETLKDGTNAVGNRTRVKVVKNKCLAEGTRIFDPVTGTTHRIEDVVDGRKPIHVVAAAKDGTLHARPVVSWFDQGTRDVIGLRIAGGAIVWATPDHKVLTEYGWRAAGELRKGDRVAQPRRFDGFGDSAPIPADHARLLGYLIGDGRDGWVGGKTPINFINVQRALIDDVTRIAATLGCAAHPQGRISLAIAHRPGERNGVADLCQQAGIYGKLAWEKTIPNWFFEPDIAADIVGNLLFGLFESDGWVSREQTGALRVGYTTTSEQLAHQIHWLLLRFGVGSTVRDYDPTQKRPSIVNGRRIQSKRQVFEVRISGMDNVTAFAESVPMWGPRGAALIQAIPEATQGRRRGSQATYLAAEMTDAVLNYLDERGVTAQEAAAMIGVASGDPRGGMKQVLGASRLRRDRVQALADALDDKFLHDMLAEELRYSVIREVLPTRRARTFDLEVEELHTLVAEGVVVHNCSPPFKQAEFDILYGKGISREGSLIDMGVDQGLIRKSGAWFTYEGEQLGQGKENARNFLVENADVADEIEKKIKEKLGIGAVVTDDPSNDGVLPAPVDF
Mtb growth: M. tuberculosis H37Rv growth inhibitors, H37Rv strain (AID 1626); M. tuberculosis H37Rv growth inhibition; higher % means a stronger effect; inhibition, % at 10 µM, or IC50 in µM where a hit was titrated; 0.95% of 220,000 active;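 active = confirmed in a dose series; inconclusive = inhibition above 80% but not taken into the dose series; inactive = below 80% or under 30% at every dose of the series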;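 note: bacteria incubated seven days before Alamar blue readout; 0% = bacteria only wells and 100% = bacteria with antibiotic wells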
YopH inh: YopH (Yersinia) phosphatase inhibition. inhibition, %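 (about 10 µM by stock and volumes)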. 0.16% of 140,000 active. AID 898. fluorescence Ex485/Em525;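 active = inhibition of 50% or more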;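 note: controls were vehicle for no effect and minimum signal wells for full effect; inactives centre near -20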
Arbovirus inh: blocks arbovirus infection. arbovirus infection cell-based antiviral screen. inhibition, % at 10 µM. 0.37% of 200,000 active. AID 1251;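 active = inhibition from about 30%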;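 note: bluetongue infection of BSR cells; cell survival read as ATP light after 72 h; 0% = infected wells without compound and 100% = uninfected wells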
Mtb bLac sens: beta-lactam sensitization of Mtb H37Rv. M. tuberculosis H37Rv growth with meropenem, percent inhibition; hits of this screen are not shown here. inhibition, % at 25 µM. 0.27% of 330,000 active;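 active = about 74% or more and at least 40 points above the plate without the antibiotic, then above 30% in a dose series; inconclusive = first-round hits that could not be retested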;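 note: growth measured after seven days incubation then overnight dye step; 0% = bacteria only wells and 100% = bacteria with antibiotic; twin plates without the antibiotic show which effects depend on it; some results filed as inactive read as strong as hits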
Arbovirus inh repeat: second read-out of Arbovirus inh, no call of its own (marks repeat the call); inhibition, %; measured here: 10K subset replicate screen; many hits read low in the repeat;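 first of two repeat runs on a subset; 0% = infected and 100% = uninfected wells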
The depositor's hits bear a star; ? = inconclusive; . = not tested or not shown; & = joins results of further samples. The list is partial; the hit share may differ from the screen's.

SMILES	RecA intein inh	Mtb growth	YopH inh	Arbovirus inh	Mtb bLac sens	others
COc1ccc(C(=O)NCc2ccc3[nH]c(C)cc3c2)cc1OC	2.2	-6%	.	15	-1
CC1CCc2sc(NC(=S)NC(=O)c3ccccc3)c(C#N)c2C1 (stereo not given)	-1.2	9%	-4	3	39
Cc1ccc(S(=O)(=O)NNc2ccccc2)c(C)c1	.	5%	-37	-6	-5
CCOc1ccccc1C(=O)N/N=C/c1cccc2cccnc12	-1.4	10%	-29	-15	68
CSc1nc(NCC(C)O)c2c3c(sc2n1)CN(C)CC3 (stereo not given)	-6.9	.	.	.	-7
COc1ccc(NC(=O)[C@H](C)NC(=O)C2CCN(S(=O)(=O)c3ccc(C)cc3)CC2)cc1	1.3	.	.	.	-10
Cc1noc(C)c1CSc1nnc(-c2ccncc2)n1-c1cccc(Cl)c1C	-4.3	-8%	-9	4	-6
O=C(CSc1n[nH]c(-c2ccccc2)n1)Nc1ccc(Br)cn1	.	49%	34	10	98
O=C(C1=NN[C@@H]2C(=O)N(c3cccc(C(F)(F)F)c3)C(=O)[C@H]12)c1cnccn1	-1.4	-13%	.	.	-4
CN(C)C(=O)[C@@H]1C[C@H]1[C@@H](NC(=O)OCc1ccccc1)c1ccccc1	0.5	10%	-16	-2	-9
COc1ccccc1CCNC(=O)c1ccc(OC)c(OC2CCN(C(C)C)CC2)c1	-4.9	.	.	.	-20
CN(C)S(=O)(=O)Nc1ccccc1C(N)=O	-0.5	2%	-3	-2	2
CCn1ccnc1CN(C)C(=O)c1cc(COc2ccc(-n3cncn3)cc2)on1	-3.8	.	.	.	0
Cc1nnc(SCC(=O)NC(=O)NC(C)(C)C)s1	0.5	8%	.	3	-4
Cc1ccsc1C(=O)OCC(=O)Nc1ccc(Cl)cc1C(F)(F)F	-0.4	-5%	-30	0	-4
Cn1c(SCC(=O)Nc2ccc3nc(SCC(=O)N4CCCC4)sc3c2)nnc1-c1ccccc1	5.8	2%	-21	1	-2
Cc1ccc(Nc2nc(N)nc(CSc3nnnn3-c3ccccc3)n2)cc1	-1.4	-4%	-29	-15	3
Cc1ccc(C(=O)OCC(=O)NCc2cccs2)c(C)c1	-2.4	9%	.	-4	-5
N#CC1=C(S)N=C(N)C(c2nc(-c3ccccc3)cs2)C12CCCCC2 (stereo not given)	5.2	.	6	-6	-9
Cn1c(=O)c2c(nc(Sc3n[nH]c(N)n3)n2Cc2ccccc2Cl)n(C)c1=O	0.5	-7%	-32	2	?

Fetched by compound from the entries so far (4):
SMILES	RecA intein inh	Mtb growth	YopH inh	Arbovirus inh	Mtb bLac sens	others
Cc1ccc(S(=O)(=O)NNc2ccccc2)c(C)c1	.	5%	-37	-6	-5
CSc1nc(NCC(C)O)c2c3c(sc2n1)CN(C)CC3 (stereo not given)	-6.9	.	.	.	-7
Cc1ccc(Nc2nc(N)nc(CSc3nnnn3-c3ccccc3)n2)cc1	-1.4	-4%	-29	-15	3
Cc1noc(C)c1CSc1nnc(-c2ccncc2)n1-c1cccc(Cl)c1C	-4.3	-8%	-9	4	-6

(listing goes on)
SMILES	RecA intein inh	Mtb growth	YopH inh	Arbovirus inh	Mtb bLac sens	others
CC(C)(C)NC(=O)CC(CC(=O)O)c1ccccc1 (stereo not given)	0.5	-8%	-25	2	-3	Arbovirus inh repeat=3
CN1CCN(C(=S)Nc2ccc(Cl)cc2)CC1	-0.2	1%	.	9	-1
O=C(CCCN1C(=O)c2ccccc2C1=O)NCC1CCCO1 (stereo not given)	-0.6	-5%	5	8	7
C=CCSC1=C(C#N)C(c2ccccc2Cl)CC(=O)N1 (stereo not given)	0.0	-1%	-6	-1	2
CCOC(=O)C1(CC2CCCCO2)CCN(C(=O)Nc2cccc(SC)c2)CC1 (stereo not given)	-0.7	9%	.	7	1
COC(=O)N/N=C/c1cc(Cl)c(OCc2ccccc2F)c(OC)c1	-0.1	10%	.	.	7
O=c1c2ccccc2nnn1CSc1ccccc1	-0.2	17%	-23	-6	10
Cc1ccc(Cl)cc1NC(=O)CCC(=O)Nc1cc(Cl)ccc1C	-0.6	-6%	-9	-3	-8
CCCCCCC(=O)Nc1nc(C)c(-c2csc(Nc3ccc(Cl)cc3)n2)s1	2.2	?	-14	-19	99
Cc1ccc(N2CCN(C(=O)c3cc(-c4ccc(F)cc4)[nH]c3C)CC2C)cc1 (stereo not given)	0.8	.	.	.	99
O=C1CSCC(=O)N1c1ncc(C(F)(F)F)cc1Cl	1.0	-14%	.	.	-7
O=C(Nc1ccc(S(=O)(=O)Nc2nccs2)cc1)c1cc(=O)[nH]c2ccccc12	1.5	-7%	.	.	-1
NNc1nc(-c2ccccc2)cs1	0.7	4%	.	-6	16
Cc1ccc(C(=O)N2CCN(c3ncccn3)CC2)cc1S(=O)(=O)N1CCCCC1	-2.4	-2%	-15	-1	7
CCOC(=O)Cn1c(=O)oc2cc(S(=O)(=O)Nc3c(C)cc(C)cc3C)ccc21	.	1%	-35	0	3	Arbovirus inh repeat=-4
O=C(Cc1ccccc1)Nc1ccccc1C(=O)Nc1ccc(C(=O)O)cc1	.	-1%	.	2	-1
N/C(=N\OC(=O)Cc1ccccc1)c1cccc(Br)c1	-22	8%	.	-5	42
COc1ccc(N(Cc2cc3ccc(C)cc3[nH]c2=O)C(=O)c2ccco2)cc1	1.9	3%	-56	-3	-10
CCCc1nnc(NC(=O)c2cc3ccccc3o2)s1	0.5	.	.	.	0
Cc1ncc([N+](=O)[O-])n1CC(C)O (stereo not given)	0.8	1%&-14%	-34	3&9	-2

Arranged by molecular weight (low to high): some entries from above.
SMILES	RecA intein inh	Mtb growth	YopH inh	Arbovirus inh	Mtb bLac sens	others
Cc1ncc([N+](=O)[O-])n1CC(C)O (stereo not given)	0.8	1%&-14%	-34	3&9	-2
CC(C)(C)NC(=O)CC(CC(=O)O)c1ccccc1 (stereo not given)	0.5	-8%	-25	2	-3	Arbovirus inh repeat=3
O=c1c2ccccc2nnn1CSc1ccccc1	-0.2	17%	-23	-6	10
CN1CCN(C(=S)Nc2ccc(Cl)cc2)CC1	-0.2	1%	.	9	-1
CCCc1nnc(NC(=O)c2cc3ccccc3o2)s1	0.5	.	.	.	0
C=CCSC1=C(C#N)C(c2ccccc2Cl)CC(=O)N1 (stereo not given)	0.0	-1%	-6	-1	2
O=C1CSCC(=O)N1c1ncc(C(F)(F)F)cc1Cl	1.0	-14%	.	.	-7
N/C(=N\OC(=O)Cc1ccccc1)c1cccc(Br)c1	-22	8%	.	-5	42
Cc1ccc(Cl)cc1NC(=O)CCC(=O)Nc1cc(Cl)ccc1C	-0.6	-6%	-9	-3	-8
COC(=O)N/N=C/c1cc(Cl)c(OCc2ccccc2F)c(OC)c1	-0.1	10%	.	.	7
O=C(Cc1ccccc1)Nc1ccccc1C(=O)Nc1ccc(C(=O)O)cc1	.	-1%	.	2	-1
COc1ccc(N(Cc2cc3ccc(C)cc3[nH]c2=O)C(=O)c2ccco2)cc1	1.9	3%	-56	-3	-10
Cc1ccc(N2CCN(C(=O)c3cc(-c4ccc(F)cc4)[nH]c3C)CC2C)cc1 (stereo not given)	0.8	.	.	.	99
CCOC(=O)Cn1c(=O)oc2cc(S(=O)(=O)Nc3c(C)cc(C)cc3C)ccc21	.	1%	-35	0	3	Arbovirus inh repeat=-4
Cn1c(=O)c2c(nc(Sc3n[nH]c(N)n3)n2Cc2ccccc2Cl)n(C)c1=O	0.5	-7%	-32	2	?
CCOC(=O)C1(CC2CCCCO2)CCN(C(=O)Nc2cccc(SC)c2)CC1 (stereo not given)	-0.7	9%	.	7	1
Cc1ccc(C(=O)N2CCN(c3ncccn3)CC2)cc1S(=O)(=O)N1CCCCC1	-2.4	-2%	-15	-1	7
CCCCCCC(=O)Nc1nc(C)c(-c2csc(Nc3ccc(Cl)cc3)n2)s1	2.2	?	-14	-19	99

Carrying on.
SMILES	RecA intein inh	Mtb growth	YopH inh	Arbovirus inh	Mtb bLac sens	others
O=C(NCCc1cccc(F)c1)C1CCCN(c2nc3ccccc3s2)C1 (stereo not given)	2.0	.	.	.	-3
O=C(CCC(=O)Nc1ccccc1)NNC(=O)c1ccco1	.	-1%	-34	3	.
CCN(CC)S(=O)(=O)c1ccc(N2CCOCC2)c(NC(=O)c2ccccc2)c1	-2.2	3%	16	0	9
COc1ccc(CCNC(=O)CSc2nnc3c(n2)[nH]c2ccc(F)cc23)cc1OC	3.5	.	.	.	5
CC1CCc2ccccc2N1C(=N)N(C)C (stereo not given)	-0.2	5%	.	3	-4
O=C(O)/C(=C\c1ccc(Br)cc1)NC(=O)c1cccs1	-0.7	.	.	.	4
CCN(CC)c1nc2c3c(nc4c(c3c1C#N)CC(=O)N4c1ccc(Cl)cc1)NC(C)=N2	-3.7	8%	12	0	9
Cc1cc(-c2ccc(C)c(S(=O)(=O)NCC3CCN(Cc4ccccc4F)CC3)c2)on1	3.8	.	.	.	5
CCCCNC(=O)c1onc(CSc2ccc(F)cc2)c1C(=O)O	-0.6	-6%	13	15	50
O=C(CCC(=O)c1ccc(-c2ccccc2)cc1)Nc1cccnc1	-0.1	-2%	.	.	77
OC(CN1CCOCC1)c1csc2ccccc12 (stereo not given)	-0.5	.	.	.	-2
O=C(Nc1ccc(S(=O)(=O)Nc2ccccn2)cc1)c1ccccc1	-3.2	.	.	.	-8
CCCSc1oc(-c2ccco2)nc1S(=O)(=O)c1ccc(C)cc1	12	.	.	.	5
CCc1nnc(NC(=O)c2cccnc2)s1	1.4	0%	6	-2	-3
COC(CN(C(=O)CCl)C(C(=O)NC1CCCC(C)C1C)c1ccc(C)cc1)OC (stereo not given)	45*	12%	-3	5	-10
Cc1ccc(S(=O)(=O)N/N=C/c2ccccc2F)cc1[N+](=O)[O-]	-1.4	.	.	.	-8
CC(=O)O[C@]1(C(C)=O)CC[C@H]2[C@@H]3C=C(Cl)C4=CC(=O)CC[C@]4(C)[C@H]3CC[C@@]21C	2.4	3%	-14	-4	2
COC(=O)c1c(C)nc(C)c2c(=O)oc3ccccc3c12	-0.1	-7%	-23	5	-5	Arbovirus inh repeat=3
C/C(=N\NC(=O)c1cc(-c2ccccc2C)nc2ccccc12)c1cccnc1	3.0	.	.	.	9
CC(NC(=O)CCN1C(=O)c2ccccc2S1(=O)=O)c1ccccc1 (stereo not given)	0.1	.	.	.	-2
CC(C)(C)NC(=O)CSC(=Nc1ccc(F)cc1)NC#N	2.7	11%	-27	-5	-8
O=C1OCCC1Sc1nnc(-c2cccc(Br)c2)o1 (stereo not given)	.	0%	-9	6	-13
COc1ccc(CCn2c(=N)c(C(=O)NC3CCCC3)cc3c(=O)n4ccccc4nc32)cc1OC	-0.5	.	.	.	8
CCCn1nc(CC(=O)OCC)c2ccccc2c1=O	.	0%	1	5	18
CCN(CC)c1ccc(/C=C/c2cccc[n+]2C)c(OC)c1	1.4	.	.	.	58
CC(=O)SC1CC(=O)N(c2ccc(C(C)(C)C)cc2)C1=O (stereo not given)	9.6	-9%	.	.	0
Cc1cc(C(=O)N/N=C/c2ccc(Br)o2)n[nH]1	-4.6	.	.	.	1
CC1(C)Cc2ccccc2C(/C(=N\Nc2cccc(Cl)c2)C(N)=O)=N1	2.1	28%	-4	-35	14
Fc1ccccc1NC(=S)N(CCN1CCCCC1)Cc1ccco1	4.4	-3%	.	3	1
CCNc1ccc(S(=O)(=O)NCCN(C)C)cc1[N+](=O)[O-]	-2.5	2%	.	0	-13
CCCNC(=O)NC(=O)CSc1ncc(C(F)(F)F)cc1Cl	1.3	7%	-10	-3	8
COc1ccc(OC)c(C2Nc3ccccc3NC3=C2C(=O)CC(C)(C)C3)c1 (stereo not given)	0.2	.	.	.	-31
O=C(CCS(=O)(=O)c1cc2c(cc1Cl)NC(=O)CO2)NCc1ccccc1	-1.8	.	.	.	4
O=C(COc1ccccc1)NCC(=O)N/N=C/c1ccc(Cl)cc1	-3.3	.	.	.	-5
CC(=O)c1cccc(OCc2cc(C(=O)N3C[C@H]4CC[C@H]3C4)no2)c1	-0.8	.	.	.	-7
COc1cc(/C=C2\SC(=S)NC2=O)ccc1OS(=O)(=O)c1ccccc1	25	-7%	-14	-16	40
CC(C)C(NC(=O)c1ccco1)C(=O)OCC(=O)Nc1ccc(C(N)=O)cc1 (stereo not given)	2.2	2%	.	5	-3
O=C(COC(=O)c1c[nH]c(=O)[nH]c1=O)Nc1ccccc1Br	0.0	-5%	.	.	-4

Source: PubChem
